From PubChem BioAssay
Bead autofluor – counter-screen for toxin protease inhibitors: compound fluorescence | compound autofluorescence counterscreen, microsphere flow cytometry; hits give high values | fluorescence intensity (concentration not given with the values) | actives 3.1% (n = 360,000) | AID 624483;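 active means at least 3 SD above the mean of all compounds, about 16000 in these data; inconclusive means too few beads counted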;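 further: 100 nL of 1 mM stock went into each well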
PrP 5UTR inh – inhibition of PrP 5' UTR reporter expression; cell-based PrP 5' UTR mRNA reporter, plate reader; inhibition, % (concentration not given with the values); actives 0.35% (n = 340,000); AID 488862;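 active means every replicate at 50% or more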;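 further: 0 = median of the neutral control wells; tested in H4 reporter cells; numbers are from one replicate; inactives centre near -14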
BJeLR lethal – BJeLR cell viability loss; BJeLR (HRASV12) viability, CellTiter-Glo ATP luminescence, 48 h; reference of the scale not given here; inhibition, % (no concentration beside the values); actives 0.17% (n = 300,000); AID 1554;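 active means replicate mean above 50%; inconclusive means above 50% but judged a plate artefact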;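 further: 50 nL library stock added to about 25 µL; numbers are from one replicate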
RN4220 kill – kills Staphylococcus aureus RN4220. S. aureus RN4220 growth, OD600, 16 h. inhibition, % (test concentration not listed). actives 0.33% (n = 330,000);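 active means z-score of -3 or lower and OD600 up to 0.18 on both plates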;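 further: plate controls were untreated cells for no effect and reference antibiotic for full effect; stock transfer was 100 nL into about 80 µL; one replicate is shown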
Mtb hypoxia rep – inhibitors of hypoxia-regulated fluorescent reporter in Mycobacterium tuberculosis. M. tuberculosis hypoxia-regulated fluorescent reporter, fluorescence. actives 0.1% (n = 300,000). AID 1159583. fluorescence inhibition, % (concentration not given with the values);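 active means 35 to 45% if threefold the growth effect, above 45% if 1.5-fold the growth effect; inactive means the rest, general growth blockers included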;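 further: wells of about 50 µL received 100 nL stock; 0% = vehicle wells and 100% = reference inhibitor wells; whole bacteria with a GFP reporter of the hypoxia response; strong numbers were not always called active; many hits fall short of the cut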
ugtP null kill – growth inhibition of S. aureus ugtP deletion strain; S. aureus RN4220 ugtP deletion, OD600 growth, 16 h; some inactives read as strong as hits; growth inhibition, % (test concentration not listed); actives 0.54% (n = 330,000); AID 1259309;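 active means z-score under -3 and OD600 up to 0.15 on both plates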;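 further: plate controls were untreated wells for no effect and antibiotic for full effect; wells of about 80 µL received 100 nL stock; the first replicate is given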
Mtb hypoxia rep growth – recorded beside Mtb hypoxia rep, whose call it bears; growth inhibition, %; measured here: M. tuberculosis growth (absorbance);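 0% = vehicle and 100% = reference antibiotic; read after six days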
* marks the source's active call; other numbers are inactive results; ? = inconclusive; . = not tested or not shown.

SMILES	Bead autofluor	PrP 5UTR inh	BJeLR lethal	RN4220 kill	Mtb hypoxia rep	Mtb hypoxia rep growth	ugtP null kill
COc1ccc(CCN2CC(C(=O)NCc3nc(C)c(C)s3)CCC2=O)cc1 (stereo not given)	4280	-15	-2	0.7	-3	0	-7
O=C(NN(CC(O)COc1ccccc1)CC(O)COc1ccccc1)c1ccccc1 (stereo not given)	3992	-6	-13	4.0	7	0	3
N#CCC(=O)N1CCN(C=O)CC1	3274	-17	-10	2.1	3	11	11
CCCCC(=O)Nc1cccc(NC(=O)CC)c1	8065	3	0	2.8	4	1	5
CS(=O)(=O)CCC(C(=O)N1CCOCC1)N1C(=O)c2cc(Cl)c(Cl)cc2C1=O (stereo not given)	9016	-21	-2	-3.0	5	6	-3
COc1ccccc1-c1nc2n(n1)C(c1ccc(Cl)cc1)C(C(N)=O)=C(C)N2 (stereo not given)	3764	5	2	3.6	6	12	-3
O=C(NN=C/C=C\c1ccccc1[N+](=O)[O-])c1cc(-c2ccc3ccccc3c2)n[nH]1	.	.	.	11	-5	4	-5
Cc1ccc(NC(=O)C(=O)NN=C2CCCC2)cc1C	4447	-28	0	-1.1	5	9	0
O=C(CCNC(=O)c1ccccc1)NNC(=O)c1ccccc1Br	7738	-30	.	3.9	1	3	6
CCCCN1C(=O)C(=O)NC[C@@H]1C(C)CC (stereo not given in full)	4474	-26	1	.	.	.	.
c1ccc2c(CSc3ncnc4nc[nH]c34)cccc2c1	2483	-22	2	1.9	11	7	4
OCC(O)C1OCOC(C(O)CO)C1O (stereo not given)	3094	-17	.	1.3	2	5	3
COC(=O)c1cc(S(=O)(=O)NCc2cccc(OC)c2)cn1C	4340	-21	-5	5.0	.	.	5
O=c1n(-c2ccccc2)c(=O)n2n1CCCC2	10207	-25	-2	-0.5	-5	-6	-6
COc1cccc(C(c2sc3nc(C)nn3c2O)N2CCc3ccccc3C2)c1 (stereo not given)	5472	-21	-3	-7.4	6	6	3
COc1ccc(/C=C/C(=O)NNc2c(F)c(F)cc(F)c2F)cc1OC	2570	-16	-11	15	-1	11	2
O=C(O)c1ccccc1-c1ccccc1C(=O)NCc1ccccc1F	?	0	-12	6.7	5	1	9
CCCCN(C(=O)c1cc(CC)c(C)s1)c1c(N)n(CC(C)C)c(=O)[nH]c1=O	4626	-14	-4	0.4	9	6	4
COC(=O)c1ccccc1Sc1c(C=NOC(=O)c2ccccc2)c(C(F)(F)F)nn1C	.	.	.	-13	10	-1	2
CN(CC(=O)NCc1cccs1)S(=O)(=O)c1cccc2cccnc12	5715	-5	-2	1.0	.	.	7
COc1ccc(CCNc2oc(-c3ccc(C)cc3)nc2C#N)cc1OC	5865	-10	0	2.8	.	.	17
CC(C)(C)c1cc(C(=O)NN=Cc2ccccc2O)n(-c2ccccc2)n1	.	.	.	68	15	2	100*
O=C1NC(NS(=O)(=O)c2ccc(Cl)cc2)(C(F)(F)F)C(=O)N1c1ccccc1 (stereo not given)	2523	-25	5	1.8	5	4	0
C[C@@H]1CC=C[C@H]2[C@H]1C(=O)N(Cc1ccccc1)[C@H]2c1cccc([N+](=O)[O-])c1	4083	-14	11	.	.	.	.

A different layout for part of the listing above.
| SMILES | Bead autofluor | PrP 5UTR inh | BJeLR lethal | RN4220 kill | Mtb hypoxia rep | Mtb hypoxia rep growth | ugtP null kill |
| --- | --- | --- | --- | --- | --- | --- | --- |
| CCCCN(C(=O)c1cc(CC)c(C)s1)c1c(N)n(CC(C)C)c(=O)[nH]c1=O | 4626 | -14 | -4 | 0.4 | 9 | 6 | 4 |
| COC(=O)c1ccccc1Sc1c(C=NOC(=O)c2ccccc2)c(C(F)(F)F)nn1C | . | . | . | -13 | 10 | -1 | 2 |
| CN(CC(=O)NCc1cccs1)S(=O)(=O)c1cccc2cccnc12 | 5715 | -5 | -2 | 1.0 | . | . | 7 |
| COc1ccc(CCNc2oc(-c3ccc(C)cc3)nc2C#N)cc1OC | 5865 | -10 | 0 | 2.8 | . | . | 17 |
| CC(C)(C)c1cc(C(=O)NN=Cc2ccccc2O)n(-c2ccccc2)n1 | . | . | . | 68 | 15 | 2 | 100* |
| O=C1NC(NS(=O)(=O)c2ccc(Cl)cc2)(C(F)(F)F)C(=O)N1c1ccccc1 (stereo not given) | 2523 | -25 | 5 | 1.8 | 5 | 4 | 0 |

(further entries)
SMILES	Bead autofluor	PrP 5UTR inh	BJeLR lethal	RN4220 kill	Mtb hypoxia rep	Mtb hypoxia rep growth	ugtP null kill
Cn1c(=N)n(CC(O)c2cccs2)c2ccccc21 (stereo not given)	4089	-21	4	5.3	0	6	0
O=C(NCc1ccco1)C1CCN(c2ccc(N3CCOCC3)nn2)CC1	4559	48	1	0.7	8	7	3
NC(=O)C1CC(=O)N(c2ccc(OCC(=O)Nc3ccccc3F)cc2)C1 (stereo not given)	3681	-35	.	5.5	5	11	1
Cc1ccc(S(=O)(=O)N2CCN(C(=O)N3CCOCC3)CC2)c(C)c1	3606	-18	-14	4.3	-6	4	2
CC1(C)CC(=O)C(C=NCCN2CCN(C(=O)CC3CCCC3)CC2)=C(O)C1	3069	-13	-2	19	-11	-12	15
CS(=O)(=O)c1ccc(-c2cccc(NC(=O)COc3ccc(Cl)cc3)c2)nn1	5530	8	2	0.3	0	-1	-2
CN(C)c1nc(NCc2ccccc2)nc(SCC(=O)Nc2ccccc2Cl)n1	2148	-7	17	7.5	5	4	7
CC(NC(=O)Nc1cccc([N+](=O)[O-])c1)(C(F)(F)F)C(F)(F)F	2670	-4	6	4.3	.	.	-39
COc1ccc(C(=O)COC(=O)CNS(=O)(=O)c2ccc(C)cc2)cc1	10419	-2	0	0.6	6	6	3
CC(=O)Nc1ccc2c(c1)C(=O)N(c1ccc(C)cc1)C2=O	3617	-16	-7	-4.8	.	.	-6
CCCCN(C(=O)CSc1nc2ccccc2s1)c1c(N)n(CCCC)c(=O)[nH]c1=O	3913	-24	.	-0.9	5	0	2
Cc1cc(/C=N/NC(=O)c2ccccc2F)c(C)n1-c1ccccc1	2619	-50	-4	.	.	.	.
O=C(CNC(=O)c1ccccc1F)OCC(=O)N1CCCCC1	2386	-11	-9	-3.4	-9	-9	-2
COc1ccc(C2C(C(=O)c3cccs3)=C(O)C(=O)N2CCN2CCOCC2)c(OC)c1 (stereo not given)	3729	5	4	-1.0	-5	-9	-4
COc1ccc(CNCCc2ccccc2)cc1OCC(N)=O	20991*	2	-6	1.9	3	16	-2
N#Cc1ccccc1NC(=O)Nc1cccc(Cl)c1	2660	-12	11	-5.3	.	.	0
C#Cc1cccc(NC(=O)c2ccc(Cl)cc2Cl)c1	3713	-78	2	-2.9	-3	3	-14
CC(=O)Nc1cc(Cl)c(N=Cc2ccc(O)cc2O)cc1Cl	2360	-6	8	0.4	1	4	8
CCOC(=O)C1=C(C)OC(N)=C(C#N)C1C1CCCCC1 (stereo not given)	3131	-19	-6	6.9	4	4	-6
COc1ccc(N2C(=O)C(CC(=O)Nc3ccc(Cl)cc3)N(NC(=O)c3cccc(F)c3)C2=S)cc1 (stereo not given)	4526	1	9	-6.9	2	-1	0
CNC(=O)c1c(NC(=O)c2ccco2)sc2c1CCC2	4022	0	1	2.5	-8	7	-6
Cn1c(N2CCN(c3ccccn3)CC2)nc2c1c(=O)n(Cc1ccc(Cl)cc1)c(=O)n2C	2553	-25	-4	-0.4	.	.	-2
C/C(=N\Nc1ccc(Cl)cc1)c1ccccn1	10465	-43	5	.	.	.	.
CCOC(=O)c1cc(CC)sc1N=CC1C(=O)CC(C)(C)CC1=O	.	.	.	6.5	8	0	-2
CN(C)S(=O)(=O)c1cccc(NC(=O)c2ccc(Sc3nncn3C)c([N+](=O)[O-])c2)c1	4302	-15	-2	3.3	-1	3	7
S=C(NCc1ccccc1)Nc1ccc2cn[nH]c2c1	4642	-21	4	1.4	12	2	5
Cc1cccc(NC(=S)N2CCN(c3ccccc3)CC2)c1	4344	-20	-1	3.3	10	3	2
Cc1ccc(SCC(Cc2ccccc2)N2CCN(CCc3ccccc3)CCC2=O)cc1 (stereo not given)	.	.	.	3.4	16	10	8
CC(=O)N1CCN(C(=O)Nc2cccc(C(F)(F)F)c2)CC1	2088	-24	8	-5.8	.	.	-14
CCO[C@H]1OC(C(=O)O)=C[C@@H](C(C)(C)C)[C@@H]1CCCO	3919	-11	12	.	.	.	.
O=C(c1ccc(Br)o1)N(c1ccc(Br)cc1)C1C=CS(=O)(=O)C1 (stereo not given)	5416	-14	0	4.8	2	4	-12
O=C(NNc1nc2c(F)cccc2s1)c1ccccc1	4080	-10	32	5.0	8	8	-2
COC(=O)C1=C(c2ccccc2OCc2ccccc2)CC2CCC1N2C(=O)NCCOc1ccc(OC)cc1 (stereo not given)	.	.	.	-10	-6	-4	-15
Cc1cc(C)n(-c2nc(N(C)C)nc(N3CCOCC3)n2)n1	6186	-8	-3	0.3	-3	-2	0
COc1ccc(S(=O)(=O)Nc2ccc(F)cc2)cc1N(C)S(=O)(=O)c1ccc(Cl)cc1	13276	-1	-2	12	-3	-9	-22
Cc1nn(C(C)C(=O)NCCN2CCCC2)c(=O)c2c1sc1ccccc12 (stereo not given)	6798	1	2	2.4	9	3	0
Cc1cccc2cc(C#N)c(N3CCN(C)CC3)nc12	8650	-16	11	1.4	9	7	-1
C/C(=N\NC(=O)c1nnn(-c2nonc2N)c1-c1cccs1)c1cccnc1	5371	-18	-1	.	.	.	.
O=C(c1ccc(CS(=O)c2ccccc2Cl)o1)N1CCOCC1 (stereo not given)	5642	-23	-1	3.4	4	4	11
CC(C)[C@H](NC(=O)c1ccco1)C(=O)N(C)Cc1ccc(C(F)(F)F)cc1	3908	-9	-7	0.6	-1	-2	8
Cc1cccc(NC(=O)CN2C(=O)S/C(=C\c3cccn3-c3cccc(C(=O)O)c3)C2=O)c1	4486	-21	-6	5.0	7	4	-4
COc1ccc(-c2nnc(NC(=O)c3ccccc3C)o2)cc1	5902	15	1	2.4	2	1	25
COc1ccc2c(c1)c1ncn(CC3CCCO3)c(=O)c1n2C (stereo not given)	5931	-25	-1	0.8	3	0	8
CSc1ccccc1C(=O)N1CCCCC1	3979	-1	-7	2.3	6	1	6
Cc1cc(C)c(C(=O)COC(=O)CN2C(=O)NC3(CCCC3)C2=O)cc1C	3044	-31	.	10	9	10	9
N#Cc1cccc(C#N)c1Oc1ccc(N)cc1	3730	-18	-3	-1.1	-9	7	-1
COc1ccc(C23CC4CC(CC(C(=O)O)(C4)C2)C3)c(F)c1	3764	-17	7	11	-1	1	-17
Cc1nc2sccn2c1-c1nc(-c2cc3ccccc3o2)cs1	2134	-25	14	.	.	.	.
O=C(Nc1ccccc1F)C1(c2ccccc2)CC1(Cl)Cl (stereo not given)	9255	-20	-14	12	-1	4	21
Fc1ccc(/C=C2\CCCC3=C2Nc2ncnn2C3c2ccc(F)cc2)cc1 (stereo not given)	6492	13	4	-3.4	4	4	-6
COc1ccc(C(=O)C2CCCN(S(=O)(=O)c3cccc(C)c3)C2)c(C)c1 (stereo not given)	6359	-21	-5	4.4	1	5	2
COc1cc2c3nc4n(c(=O)c3n(CC(=O)N3CCCC3)c2cc1OC)CCS4	4572	-1	.	7.5	-9	-9	9
N#Cc1cc[n+](CC(=O)c2ccc(NC(=O)c3ccccc3)cc2)cc1	5211	-26	-2	.	.	.	.
CCNc1ccc(C(=O)OCC(=O)NCc2ccc(C)cc2)cc1[N+](=O)[O-]	2300	-18	-6	4.1	11	4	-1
Nc1c(N(Cc2ccccc2)C(=O)COc2cccc(Cl)c2)c(=O)[nH]c(=O)n1Cc1ccccc1	4903	-79	14	2.4	-5	-2	3
CCN1CCN(CCCNC(=O)C2c3ccccc3C(=O)N(c3ccc(OC)cc3)C2c2ccc(OC)cc2)CC1 (stereo not given)	3011	-12	6	1.9	5	5	4
Cn1c(SCC(=O)NC2CC2)nnc1C(F)(F)F	13095	-12	6	8.7	4	-2	19
O=C(NNC(=O)c1ccc(F)cc1F)c1ccc(-n2cnnn2)cc1	4850	-12	7	-1.3	-3	-21	3
O=C(NN=Cc1cccnc1)c1ccccc1	.	.	.	0.2	12	3	5
CCN1CCCC1CNCc1ccccc1OCc1ccc(F)cc1 (stereo not given)	6061	-22	-3	4.9	10	12	12
Cc1occc1C(=O)N/N=C/C(Br)=C/c1ccccc1	4153	-57	13	.	.	.	.
CCCCC(=O)Nc1c2c(nn1-c1ccc([N+](=O)[O-])cc1)CS(=O)(=O)C2	3025	18	-3	1.4	1	-3	7
